Assay outcomes as filed in PubChem.
Sa growth inh – S. aureus growth inhibition at 42 and 30 °C, primary screen, LtaS inhibitor project, RN4220, two temperatures; OD600, 20 h, 42 °C; active compounds read low; relative growth, % (no concentration beside the values); AID 720641, 2013; 170,000 tested, 0.53% active;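 active means growth at 42 °C up to 50% and 20 or more points under that at 30 °C, or under 10% at both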;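 further: 300 nL library stock went into each well; scaled to the means of positive and negative controls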
HCMV NEC inh – inhibitors of HCMV UL50-UL53 interaction, biochemical, HTRF. normalized percent inhibition. 190,000 tested, 0.15% active. AID 1918969, 2023. inhibition, % (test concentration not listed);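 active means both replicates at 50% or more, plus weaker picks with an unusually low signal ratio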;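 further: stock transfer was 100 nL into about 20 µL; 0% = negative control wells and 100% = wells with untagged competitor protein; inactives centre near -12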
GIV Gai3 FP – inhibitors of GIV peptide binding to Galpha-i3, primary screen, biochemical, fluorescence polarization, FITC-GIV GBA peptide, rat Galphai3 | Guanine nucleotide-binding protein G(i) subunit alpha-3 (Rattus norvegicus), P08753 | 90 min; active compounds read low; scaled: aluminum fluoride 0%, vehicle 100% | percent of control (FP), % (no concentration beside the values) | 210,000 tested, 0.42% active;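 active means replicate mean at 85% of control or lower, very high polarization wells dropped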;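 further: wells of about 15 µL received 100 nL stock; the first replicate is given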
Target sequence (P08753 whole entry, looked up): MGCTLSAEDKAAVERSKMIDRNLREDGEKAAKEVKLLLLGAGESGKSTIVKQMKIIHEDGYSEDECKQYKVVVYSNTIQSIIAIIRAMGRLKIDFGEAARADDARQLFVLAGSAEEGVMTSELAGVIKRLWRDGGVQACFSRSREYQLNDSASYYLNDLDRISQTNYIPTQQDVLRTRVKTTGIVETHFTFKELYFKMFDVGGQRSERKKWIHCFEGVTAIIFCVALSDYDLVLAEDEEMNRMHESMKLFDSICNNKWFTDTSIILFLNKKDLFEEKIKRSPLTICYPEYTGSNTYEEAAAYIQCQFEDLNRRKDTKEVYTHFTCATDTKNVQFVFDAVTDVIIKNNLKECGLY
Sa growth inh second temp – further read-out of Sa growth inh, marked with its call; relative growth, %; measured here: growth at 30 °C;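 optical density after 20 h as mean of two plates; 100% = untreated growth and lower means inhibition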
* hit, by the source's call; & = joins results of further samples.

Results for O=C(CCn1c(=O)c2ccccc2n(Cc2cccc(Cl)c2)c1=O)NCCc1ccccc1 ?
Sa growth inh: 86; HCMV NEC inh: -26; GIV Gai3 FP: 105; Sa growth inh second temp: 88

How did COc1ccc(CC(=O)c2cc(OC)c(OC)cc2CC(=O)O)cc1OC do in these assays?
Sa growth inh: 99; HCMV NEC inh: -10; GIV Gai3 FP: 106; Sa growth inh second temp: 102

How did CCOC(=O)c1[nH]c(C)c(C(=O)NCCc2ccccc2)c1C do in these assays?
Sa growth inh: 85; HCMV NEC inh: 2; GIV Gai3 FP: 99; Sa growth inh second temp: 78

What do the screens show for `COc1ccc2oc(=O)c(C(=O)Nc3ccc(C(=O)O)cc3)cc2c1`?
Sa growth inh: 98; HCMV NEC inh: -98; GIV Gai3 FP: 102; Sa growth inh second temp: 103

What do the screens show for `CC(C)NS(=O)(=O)c1ccc(CN2C(=O)c3cccnc3C2=O)s1`?
Sa growth inh: 102; HCMV NEC inh: -35; GIV Gai3 FP: 105; Sa growth inh second temp: 95

How did CN(CC(=O)NCc1ccccc1)S(=O)(=O)c1ccc(C(=O)N2CCOCC2)s1 do in these assays?
Sa growth inh: 106; HCMV NEC inh: -14; GIV Gai3 FP: 108; Sa growth inh second temp: 90

Results for Cc1cccc(N2Cc3cccc(C(=O)O)c3C2=O)c1 ?
Sa growth inh: 116; HCMV NEC inh: -7; GIV Gai3 FP: 105; Sa growth inh second temp: 86

How did CN(C)C(C(=O)NC1CCCC1)c1ccc(Cl)cc1 (stereo not given) do in these assays?
Sa growth inh: 102; HCMV NEC inh: -16; GIV Gai3 FP: 101; Sa growth inh second temp: 91

What do the screens show for `COc1cc2nc(CN3CCC(C)CC3)[nH]c(=O)c2cc1OC`?
Sa growth inh: 106; HCMV NEC inh: -25; Sa growth inh second temp: 86

How did O=C(CN1C(=O)C2CCCCN2c2ccc(S(=O)(=O)N3CCCC3)cc21)N1CCCCC1 (stereo not given) do in these assays?
HCMV NEC inh: -8; GIV Gai3 FP: 102

Copied from the results shown (ten entries):
Results for O=C(CCn1c(=O)c2ccccc2n(Cc2cccc(Cl)c2)c1=O)NCCc1ccccc1 ?
Sa growth inh: 86; HCMV NEC inh: -26; GIV Gai3 FP: 105; Sa growth inh second temp: 88

How did COc1ccc(CC(=O)c2cc(OC)c(OC)cc2CC(=O)O)cc1OC do in these assays?
Sa growth inh: 99; HCMV NEC inh: -10; GIV Gai3 FP: 106; Sa growth inh second temp: 102

How did CCOC(=O)c1[nH]c(C)c(C(=O)NCCc2ccccc2)c1C do in these assays?
Sa growth inh: 85; HCMV NEC inh: 2; GIV Gai3 FP: 99; Sa growth inh second temp: 78

What do the screens show for `COc1ccc2oc(=O)c(C(=O)Nc3ccc(C(=O)O)cc3)cc2c1`?
Sa growth inh: 98; HCMV NEC inh: -98; GIV Gai3 FP: 102; Sa growth inh second temp: 103

What do the screens show for `CC(C)NS(=O)(=O)c1ccc(CN2C(=O)c3cccnc3C2=O)s1`?
Sa growth inh: 102; HCMV NEC inh: -35; GIV Gai3 FP: 105; Sa growth inh second temp: 95

How did CN(CC(=O)NCc1ccccc1)S(=O)(=O)c1ccc(C(=O)N2CCOCC2)s1 do in these assays?
Sa growth inh: 106; HCMV NEC inh: -14; GIV Gai3 FP: 108; Sa growth inh second temp: 90

Results for Cc1cccc(N2Cc3cccc(C(=O)O)c3C2=O)c1 ?
Sa growth inh: 116; HCMV NEC inh: -7; GIV Gai3 FP: 105; Sa growth inh second temp: 86

How did CN(C)C(C(=O)NC1CCCC1)c1ccc(Cl)cc1 (stereo not given) do in these assays?
Sa growth inh: 102; HCMV NEC inh: -16; GIV Gai3 FP: 101; Sa growth inh second temp: 91

What do the screens show for `COc1cc2nc(CN3CCC(C)CC3)[nH]c(=O)c2cc1OC`?
Sa growth inh: 106; HCMV NEC inh: -25; Sa growth inh second temp: 86

How did O=C(CN1C(=O)C2CCCCN2c2ccc(S(=O)(=O)N3CCCC3)cc21)N1CCCCC1 (stereo not given) do in these assays?
HCMV NEC inh: -8; GIV Gai3 FP: 102

Remaining list, next part.
Results for C=CCN1C(=O)/C(=C/c2c(NCc3ccco3)nc3ccccn3c2=O)SC1=S ?
Sa growth inh: 132; HCMV NEC inh: -14; GIV Gai3 FP: -83*; Sa growth inh second temp: 71

Results for Cc1ccc2nc(-c3cccc(C#N)c3)cn2c1 ?
Sa growth inh: 109; HCMV NEC inh: -15; GIV Gai3 FP: 105; Sa growth inh second temp: 75

What do the screens show for `O=C(CSc1ccc(Cl)cc1)Nc1ccccc1`?
Sa growth inh: 96; HCMV NEC inh: -4; GIV Gai3 FP: 99; Sa growth inh second temp: 93

What do the screens show for `CC(=O)c1ccc(NC(=O)c2ccc(-c3nc(COc4ccc(C)cc4)c(C)o3)cc2)cc1`?
Sa growth inh: 97; GIV Gai3 FP: 103; Sa growth inh second temp: 83

How did COc1ccccc1NC(=O)C1=C(C)Nc2nc3ccccc3n2C1c1cccnc1 (stereo not given) do in these assays?
Sa growth inh: 99; HCMV NEC inh: 9; GIV Gai3 FP: 109; Sa growth inh second temp: 106

Results for NC(=O)/C(=C\c1ccco1)NC(=O)c1ccc(Br)cc1 ?
Sa growth inh: 102; HCMV NEC inh: -32; GIV Gai3 FP: 105; Sa growth inh second temp: 90

How did CCc1ccc(NC(=S)NCC(C)(C)N2CCOCC2)cc1 do in these assays?
Sa growth inh: 94; HCMV NEC inh: -15; Sa growth inh second temp: 93

How did O=c1oc2cc(OCc3ccc(F)cc3F)ccc2cc1-c1ccccn1 do in these assays?
Sa growth inh: 109; HCMV NEC inh: -34; Sa growth inh second temp: 83

How did COc1ccccc1C(=O)N1CCc2c(c(C(=O)NCc3ccccc3)nn2C)C1 do in these assays?
HCMV NEC inh: -34; GIV Gai3 FP: 104

What do the screens show for `CCN(CC)c1ccc(NC(=O)CCCN2C(=O)C(c3ccccc3)Oc3cccnc32)c(C)c1` (stereo not given)?
Sa growth inh: 105; GIV Gai3 FP: 101; Sa growth inh second temp: 93

What do the screens show for `CC(C(=O)Nc1cccc(F)c1)C1Sc2ccccc2NC1=O` (stereo not given)?
Sa growth inh: 119; HCMV NEC inh: -16; GIV Gai3 FP: 103; Sa growth inh second temp: 97

Results for COc1cccc(CN(C)CN2C(=O)NC3(CC(C)(C)NC(C)(C)C3)C2=O)c1OC ?
Sa growth inh: 70; HCMV NEC inh: -60; Sa growth inh second temp: 84

What do the screens show for `COc1ccc(/C=N/c2nnc(-c3ccccc3)c(-c3ccccc3)n2)c(C(=O)O)c1OC`?
Sa growth inh: 91; HCMV NEC inh: -26; Sa growth inh second temp: 88

How did Cc1ccc(NC(=O)CSc2nc3ccc(NC(=O)c4ccco4)cc3s2)c(C)c1 do in these assays?
Sa growth inh: 102; HCMV NEC inh: -23; GIV Gai3 FP: 100; Sa growth inh second temp: 75

How did CCOc1ccccc1OC(C)C(=O)NC(C)(C#N)C(C)C (stereo not given) do in these assays?
Sa growth inh: 94; HCMV NEC inh: -26; Sa growth inh second temp: 93

How did O=C1OCC(CO)N1c1ccccc1 (stereo not given) do in these assays?
Sa growth inh: 70; HCMV NEC inh: 10; Sa growth inh second temp: 90

What do the screens show for `COc1ccc(-c2nn3c(=O)cc(CN4CCN(C(=O)Nc5ccc(C)c(Cl)c5)CC4)nc3s2)cc1`?
Sa growth inh: 99; GIV Gai3 FP: 103; Sa growth inh second temp: 91

How did Cc1cc(=O)[nH]c(SCC(=O)NC(C)C2CC3CCC2C3)c1C#N (stereo not given) do in these assays?
Sa growth inh: 101; HCMV NEC inh: 5; Sa growth inh second temp: 92

How did COc1ccccc1-n1cnc2cc(C(=O)NCc3cccnc3)ccc21 do in these assays?
Sa growth inh: 102; HCMV NEC inh: 3; Sa growth inh second temp: 84

How did COc1ccc(C(N)=NC#N)cc1 do in these assays?
Sa growth inh: 78; HCMV NEC inh: -2; Sa growth inh second temp: 89

What do the screens show for `COc1ccc(CNc2nc(-c3ccc(Cl)cc3)cc(C(F)(F)F)n2)cc1`?
Sa growth inh: 81; HCMV NEC inh: 7; GIV Gai3 FP: 96; Sa growth inh second temp: 97

Results for COc1ccc(OC)c(NC(=O)N2CCc3c([nH]c4ccc(OC)cc34)C2c2ccc(F)cc2)c1 (stereo not given) ?
HCMV NEC inh: 1; GIV Gai3 FP: 112

What do the screens show for `COc1cc(C2NC(=O)NC(C)=C2C(=O)OCCOc2ccccc2)cc(Cl)c1O` (stereo not given)?
HCMV NEC inh: -4; GIV Gai3 FP: 106

How did NC(=O)c1ccc(N(S(=O)(=O)C(F)(F)F)S(=O)(=O)C(F)(F)F)cc1 do in these assays?
Sa growth inh: 88; HCMV NEC inh: -19; Sa growth inh second temp: 91

What do the screens show for `CCOc1ccccc1NC(=O)c1c(NCc2ccc(C)o2)sc2c1CCCCC2`?
Sa growth inh: 76; GIV Gai3 FP: 114; Sa growth inh second temp: 82

Results for O=C(Cc1ccccc1F)N1CCC(c2nc3c(nnn3Cc3ccc(F)cc3)c(=O)[nH]2)CC1 ?
Sa growth inh: 68; HCMV NEC inh: -24; GIV Gai3 FP: 104; Sa growth inh second temp: 40

How did COc1ccc(Cl)cc1NC(=O)CN(C)C(=O)c1cccnc1SCc1c(C)noc1C do in these assays?
Sa growth inh: 113; HCMV NEC inh: 20; Sa growth inh second temp: 93

How did CCC(=O)N1C(C(=O)O)CSC1c1ccc(OC)cc1 (stereo not given) do in these assays?
Sa growth inh: 121; HCMV NEC inh: 4; GIV Gai3 FP: 108; Sa growth inh second temp: 94

Results for CCN(CC)C(=O)Cc1nc(-c2ccc(OC)cc2)no1 ?
Sa growth inh: 98; GIV Gai3 FP: 99; Sa growth inh second temp: 86

What do the screens show for `COC(=O)CSc1nnc(COc2ccccc2)o1`?
HCMV NEC inh: -5; GIV Gai3 FP: 103

What do the screens show for `Oc1ccc(NCc2ccccc2OCc2ccccc2)cc1`?
Sa growth inh: 101; HCMV NEC inh: -3; GIV Gai3 FP: 99; Sa growth inh second temp: 91

What do the screens show for `NC(=O)CSc1nc2sc3c(c2c(=O)n1C1CCCC1)CCCC3`?
Sa growth inh: 85; HCMV NEC inh: -20; Sa growth inh second temp: 96

What do the screens show for `Cc1ccc(NC(=O)CC(C)S(=O)(=O)c2ccc3c(c2)NC(=O)CO3)c(Cl)c1` (stereo not given)?
Sa growth inh: 115; GIV Gai3 FP: 105; Sa growth inh second temp: 84

What do the screens show for `NC(=O)C1CCCNC1` (stereo not given)?
Sa growth inh: 91; HCMV NEC inh: -35; Sa growth inh second temp: 81

How did Cc1ccc(C)n1N(C)c1cccc(F)c1C#N do in these assays?
Sa growth inh: 106; HCMV NEC inh: 5; GIV Gai3 FP: 102; Sa growth inh second temp: 99

What do the screens show for `CCOC(=O)CC(N)c1cccc(O)c1` (stereo not given)?
Sa growth inh: 94; HCMV NEC inh: -20; Sa growth inh second temp: 88

Results for COc1cccc(NC(=O)CSc2nnc(NC(=O)NC3CCCCC3)s2)c1 ?
Sa growth inh: 114; GIV Gai3 FP: 97&99; Sa growth inh second temp: 88

What do the screens show for `C/C(=N/OC(=O)CSc1nc(-c2ccco2)cc(C(F)(F)F)n1)c1ccccc1`?
Sa growth inh: 108; HCMV NEC inh: -1; GIV Gai3 FP: 105; Sa growth inh second temp: 75

What do the screens show for `O=C1CSC2(CCCC2)N1`?
Sa growth inh: 102; HCMV NEC inh: -11; GIV Gai3 FP: 106; Sa growth inh second temp: 93

How did CCOc1ccc2c(c1)c(=O)c(C(=O)c1ccc(CC)cc1)cn2CC(=O)Nc1ccccc1OC do in these assays?
Sa growth inh: 102; HCMV NEC inh: -28; GIV Gai3 FP: 102; Sa growth inh second temp: 94

What do the screens show for `Cc1ccc(NC(=O)C(Cc2ccccc2)n2cccc2)c(C)c1` (stereo not given)?
Sa growth inh: 102; HCMV NEC inh: -9; GIV Gai3 FP: 99; Sa growth inh second temp: 87

Results for Cc1cc(C)c2cc(C3C(C#N)=C(N)OC4=C3C(=O)CC(C)(C)C4)c(=O)[nH]c2c1 (stereo not given) ?
Sa growth inh: 61; HCMV NEC inh: -6; GIV Gai3 FP: 108; Sa growth inh second temp: 64

Results for O=C(Nc1cccc(Cl)c1)c1cnn(-c2ccc(Br)cc2)c1 ?
HCMV NEC inh: -4; GIV Gai3 FP: 103

How did COc1ccccc1N1C(=O)C2C3C=CC(C2C1=O)C1C2C(=O)N(c4ccccc4OC)C(=O)C2C31 (stereo not given) do in these assays?
HCMV NEC inh: -28; GIV Gai3 FP: 108

Results for COc1ccc(-c2nn3c(-c4ccccc4C)nnc3c3ccccc23)cc1 ?
Sa growth inh: 105; HCMV NEC inh: 0; GIV Gai3 FP: 110; Sa growth inh second temp: 93

How did Cc1ccc(CNC(=O)C2(C)Cn3nc(C)cc3C(=O)N2Cc2cccnc2)cc1 (stereo not given) do in these assays?
HCMV NEC inh: -6; GIV Gai3 FP: 97

Results for CCn1c(=O)/c(=C\c2ccc(Cl)cc2)s/c1=C(/C#N)C(N)=O ?
Sa growth inh: 92; HCMV NEC inh: -15; Sa growth inh second temp: 101

Results for Cc1ccc(S(=O)(=O)n2nc(C)cc2C)cc1 ?
Sa growth inh: 86; GIV Gai3 FP: 105; Sa growth inh second temp: 92
